Screening data from PubChem BioAssay.
Cruzain inh Det: qHTS Assay for Promiscuous and Specific Inhibitors of Cruzain (with detergent); AID 1478, 2009; purified cruzain, Z-FR-AMC fluorescence, 0.01% Triton; Cruzipain (Trypanosoma cruzi), P25779; actives 0.43% (n = 200,000); Potency, µM, for inactives: max response, negative = inhibition, most hits filed as inhibitors;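 further: plate controls were neutral wells for no effect and buffer without enzyme for full effect; nearly all actives have a fitted effect of over 40% in size; top concentration of the series not given in the record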
Target sequence (P25779 123-467 limits assumed): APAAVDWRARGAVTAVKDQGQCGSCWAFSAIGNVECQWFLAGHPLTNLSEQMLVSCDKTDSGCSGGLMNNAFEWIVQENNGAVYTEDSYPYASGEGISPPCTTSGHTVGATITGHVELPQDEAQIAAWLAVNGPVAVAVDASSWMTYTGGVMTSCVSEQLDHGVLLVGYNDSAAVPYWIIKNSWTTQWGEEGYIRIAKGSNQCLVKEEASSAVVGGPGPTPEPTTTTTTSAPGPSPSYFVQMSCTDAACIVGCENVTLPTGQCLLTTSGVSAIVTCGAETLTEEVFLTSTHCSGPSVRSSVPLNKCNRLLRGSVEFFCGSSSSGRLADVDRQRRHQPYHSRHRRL
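Cysteine protease activity tested under reducing, mildly acidic conditions (100 mM sodium acetate pH 5.5, 5 mM DTT) plus 0.01% Triton X-100. Cruzain 1.5 nM; substrate Z-FR-AMC 2 uM; 15 min compound preincubation at room temperature.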
MARV entry inh: qHTS for inhibitors of binding or entry into cells for Marburg Virus. actives 1.8% (n = 300,000). Potency, µM (highest dose often 37.8 µM), for inactives: at the highest dose activity change, negative = inhibition, actives largely listed as inhibitors. Marburg virus pseudotyped entry inhibition, cell reporter; control for the full effect not named in the record; about a third of the inactives were read at about 46 µM; active = well fitted inhibition curve with a large enough effect; inconclusive = small, poorly fitted or top-dose-only effect, or effect the other way; inactive = flat fitted curve, though single readings scatter; tested in HEK293 cells; about a fifth of its hits are not listed in these tables; further: on the % scale 0 is the no-effect control and ±100 the full control effect; luciferase read-out
RE007 growth inh: qHTS Assay for Inhibitors of the HIV-1 protein Vpr | AID 651644, 2012 | S. pombe RE007 Vpr strain, BacTiter-Glo ATP luminescence, 24 h; control for the full effect not named in the record | actives 0.21% (n = 360,000) | Potency, µM (top dose mostly 92.2 µM), inactives show top-dose activity change, negative = less growth; active = well fitted falling curve with a large enough effect; inconclusive = small, poorly fitted or top-dose-only effect; inactive = no such curve, though single readings can be large or run the other way;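 further: on the % scale 0 is the no-effect control and ±100 the full control effect; nearly all actives have a fitted effect of over 50% in size; the assay follows cell death caused by Vpr and the record does not say whether a fall means rescue or toxicity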
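Fission yeast strain RE007, carrying one chromosomally integrated HIV-1 vpr copy, was seeded at OD 0.01 in PMG+AL medium with 23 nL pinned compound. After 24 h at 30 °C and 99% humidity, viability was read by BacTiter-Glo luminescence.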
SARS PLpro yeast: qHTS of Yeast-based Assay for SARS-CoV PLP; S. cerevisiae expressing SARS-CoV PLpro, growth rescue; control for the full effect not named in the record; Potency, µM (highest dose often 32.9 µM), for the others: top-dose activity, positive = growth rescue; actives 0.19% (n = 330,000); active means well fitted rising curve with a large enough effect; inconclusive means small, poorly fitted or top-dose-only effect; inactive means no such curve, though single readings can be large or run the other way; further: 0% is about no effect; nearly all actives have a fitted effect of over 55% in size; growth read by luminescence after 48 h
Cruzain noTriton: qHTS Assay for Promiscuous and Specific Inhibitors of Cruzain (without detergent); actives 2.3% (n = 200,000); purified cruzain, Z-FR-AMC fluorescence, no detergent; Cruzipain (Trypanosoma cruzi), P25779; Potency, µM, without a hit: max response, negative = inhibition, most hits filed as inhibitors;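 further: plate controls were enzyme without inhibitor for no effect and buffer without enzyme for full effect; nearly all actives have a fitted effect of over 40% in size; top concentration of the series not given in the record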
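Detergent-free condition (0.00005% Triton X-100) in acetate buffer pH 5.5 with DTT. 1.5 nM enzyme and compound were pre-mixed 15 min, then 2 uM Z-FR-AMC substrate added; reaction progress from fluorescence change between first and third reads (60 s).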
2A StopGo: High Throughput Screening for Foot and Mouth Disease Virus Antivirals. Potency, µM (doses to about 57.9 µM), for inactives: at the highest dose signal change, negative = less light. actives 1.2% (n = 410,000). human cells with a luciferase reporter of 2A StopGo recoding; control for the full effect not named in the record; active = well fitted falling curve with a large enough effect; inconclusive = small, poorly fitted or top-dose-only effect; inactive = no such curve, though single readings can be large or run the other way; tested in HEK293T cells; further: on the % scale 0 is the no-effect control and ±100 the full control effect; nearly all actives have a fitted effect of over 45% in size; luciferase light after 4 h
NS1 function inh: qHTS Assay for Inhibitors of Influenza NS1 Protein Function. S. cerevisiae slowed by influenza A NS1, growth recovery by OD600. Potency, µM (series often up to 46.1 µM), for inactives: top-dose activity, positive = more growth. actives 0.4% (n = 270,000); active means well fitted rising curve with a large enough effect; inconclusive means small, poorly fitted or top-dose-only effect; inactive means no such curve, though single readings can be large or run the other way; further: nearly all actives have a fitted effect of over 50% in size
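S. cerevisiae expressing influenza A NS1, grown in glucose, washed, then diluted 1:100 into pH 6.0 -URA galactose medium with 23 nl compound. Growth recovery read as OD600; NS1-free strain serves as control.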
Lassa entry inh: qHTS for Inhibitors of binding or entry into cells for Lassa Virus; actives 1.2% (n = 300,000); Lassa virus pseudotype entry inhibition, cell reporter; control for the full effect not named in the record; AID 540256, 2011; Potency, µM (titrated, usually from 37.9 µM), without a hit: top-dose activity change, negative = inhibition, actives largely listed as inhibitors; active means well fitted inhibition curve with a large enough effect; inconclusive means small, poorly fitted or top-dose-only effect, or effect the other way; inactive means flat fitted curve, though single readings scatter; tested in HEK293 cells; further: on the % scale 0 is the no-effect control and ±100 the full control effect; nearly all actives have a fitted effect of over 50% in size; luciferase read-out
Active calls of the source: *; ? = inconclusive; . = not tested or not shown; & = joins results of further samples; [ ] = another dose, or the depositor's remark. Unless noted, the call rests on the fitted dose curve; in most records, active means well fitted curve in the direction sought with a large enough effect; inconclusive means small, poorly fitted or top-dose-only effect, or another doubt; inactive means no such curve, though single readings can be large; an effect the other way counts as inactive or inconclusive. Potency means the concentration at half of the fitted maximal effect. Rows were taken by chance; about 4.8% have a hit in one of these screens.

Structure	Cruzain inh Det	MARV entry inh	RE007 growth inh	SARS PLpro yeast	Cruzain noTriton	2A StopGo	NS1 function inh	Lassa entry inh
COc1cccc(N(CC(=O)N2CCN(c3ccccc3OC)CC2)S(C)(=O)=O)c1	3.9%	?	-12%	1%	12%	-28%	-2%	4%
CC(C)CN(C(=O)c1ccc(S(=O)(=O)N2CCOCC2)cc1)C1CCS(=O)(=O)C1 (stereo not given)	.	8%[46.1 µM]	4%	-4%	.	-3%	.	27%
CCc1cc(C(=O)N2CCN(S(=O)(=O)c3ccc(Cl)cc3)CC2)sc1C	.	5%	-2%	3%	.	?	.	-1%
COc1ccc(C(=O)Nc2ccc3nc(N4CCN(C)CC4)cc(C)c3c2)c(OC)c1	.	?	6%	-1%	.	-1%	-3%	?
COc1cc(SC)ccc1C(=O)Nc1ccc(S(=O)(=O)N2CCCC2)cc1	-1.3%	-2%	-1%	-1%	-13%	?	-8%	-7%
COc1ccc(S(=O)(=O)NC2CC2)cc1-n1cnnn1	.	5%[46.1 µM]	-25%	2%	.	15%	3%	25%[46.1 µM]
Cc1cccc(N2CCN(Cc3nc(-c4ccccc4Cl)oc3C)CC2)n1	.	?	-17%	-3%	.	-7%	-6%	-15%[46.1 µM]
Cc1nc2ccccc2c(=O)n1NC(=O)c1c(F)cccc1F	.	.	-3%	18%	.	-18%	-1%	.
O=C(c1ccc(S(=O)(=O)N2CCCC2)cc1)N1CCN(c2ccccc2)CC1	.	5%[46.1 µM]	6%	2%	.	4%	4.5µM*	-4%
COc1ccc(N(CC(=O)NCCc2ccc(OC)c(OC)c2)S(=O)(=O)c2c(C)noc2C)cc1	.	-5%[46.1 µM]	7%	0%	.	-2%	-9%	20%[46.1 µM]
CC1=Nc2cc(C(=O)NC3CCCC3)ccc2Sc2ccc(Cl)cc21	-3.0%	.	.	.	?	-25%	.	?
Cc1ccc(NC(NC(=O)c2cccnc2)C(Cl)(Cl)Cl)cc1 (stereo not given)	-4.7%	16µM*	-15%	-28%	15%	?	1%	0%
O=C(CN1C(=O)NC2(CCCC2)C1=O)Nc1cccc(Cl)c1Cl	.	-9%[46.1 µM]	13%	0%	.	-6%	-14%	.
O=C(N=c1ccn(-c2nc3ccccc3nc2NS(=O)(=O)c2ccc(Cl)cc2)cc1)c1cccs1	.	.	-9%	0%	.	-9%	-2%	.
Cc1ccc(C(=O)N(CCCN(C)C)c2nc3ccc(Cl)cc3s2)cc1C	.	8.9µM*	1%	-5%	.	?	.	?
CCOC(=O)Cc1c(C)c2c(C)nn(-c3ccccc3)c2oc1=O	-7.0%	-21%	-23%	-7%	2%	-5%	-9%	2%
COc1ccnc(N2CCN(c3ccc(Cl)cc3)CC2)c1C#N	-11%	-2%	-3%	-1%	-17%	?	-9%	-27%
CC1CCN(S(=O)(=O)c2ccc3c(c2)N(CC(=O)NC(C)C)C(=O)CO3)CC1	-1.1%	.	.	.	-2%	2%	.	2%[46.1 µM]
C=CCNC(=O)C(=O)NCCCN1CCOCC1	.	.	2%	-1%	.	2%	5%	.
COc1ccc(-c2nc(C#N)c(N3CCCCC3)o2)cc1	.	17%	-3%	-3%	.	5%	9%	-3%
CCCOC1CCCN(Cc2nc(-c3ccc(C(=O)OC)cc3)no2)C1 (stereo not given)	.	.	-1%	1%	.	-13%	-1%	.
O=C(C(Cc1ccccc1)N1C(=O)C2C3CCC(C3)C2C1=O)N1CCCCC1 (stereo not given)	3.7%	-7%	0%	0%	5%	29%	12%	5%
COc1ccc(-n2c(C)cc(C(=O)COc3ccc(C)nc3[N+](=O)[O-])c2C)cc1	-5.8%	-33%	33%	-10%	?	?	18%	-28%
COC(=O)c1ccc(OC(=O)c2ccncc2)cc1O	.	.	6%	-3%	.	-17%	-2%	.
Cc1ccc(C(=O)N2CCN(c3ccccc3O)CC2)cc1S(=O)(=O)N1CCCCC1	.	-3%	-27%	-25%	.	0%	.	7%
Cc1nn(C(C)C(=O)NCCc2ccco2)c(=O)c2nn(-c3ccccc3)c(C)c12 (stereo not given)	.	9%[46.1 µM]	4%	-3%	.	24%	12%	17%[46.1 µM]
COc1ccccc1C(=O)N/C(=C/c1ccccc1)C(=O)Nc1ccc(C(=O)O)cc1	.	-3%[46.1 µM]	11%	0%	.	-1%	.	-4%[46.1 µM]
N#Cc1c(-c2ccc(F)cc2)nc2n(c1=O)CCS2	2.9%	-7%	-1%	-20%	-1%	1%	0%	-6%
CSc1ccc(S(=O)(=O)Nc2ccc3c4c(cccc24)CC3)cc1	-0.3%	?	-12%	-11%	?	-8%	10%	-19%
Cn1c(=O)cc(OCCCC(=O)N2CCN(c3ccccn3)CC2)c2ccccc21	-1.4%	-10%	9%	0%	-3%	-21%	-12%	-2%
O=C1C=C(Nc2ccc(O)cc2)CC(c2ccco2)C1 (stereo not given)	-6.9%	?	9%	13%	-6%	19%	8%	-12%
COc1ccc(N2CCN(C(=O)c3ccc(CS(=O)(=O)c4ccc(Br)cc4)o3)CC2)cc1	-0.2%	8%&8%[46.1 µM]	4%	-1%	2%	-14%&20%	5%	8%[46.1 µM]
COc1cc(NC(=O)c2ccc(C(=O)c3ccccc3)cc2)cc(OC)c1OC	.	0%	-14%	1%	.	?	11%	-5%
Cc1cc([N+](=O)[O-])ccc1-c1ccc(C2Nc3ccccc3C(=O)N2O)o1 (stereo not given)	-5.4%	?	-1%	-24%	20µM*	-28%	-127%	?
O=c1cc(CSc2nnc(Nc3ccccc3)s2)nc2sccn12	-7.1%	7%	0%	-2%	-10%	-19%	8%	?
COc1ccc(OC)c(/C=N\NC(=O)c2ccc(COc3ccc(C)cc3[N+](=O)[O-])o2)c1	.	-1%	-4%	.	.	-27%	.	2%
COc1ccc(C(=O)c2oc3ccccc3c2NC(=O)COc2cccc(C)c2C)cc1	-1.1%	?	.	.	13%	0%	.	-7%[46.1 µM]
Cc1cc(Cl)ccc1C(=O)C1CCCN(C(=O)c2ccoc2)C1 (stereo not given)	.	3%[46.1 µM]	13%	-3%	.	?	-5%	?
Brc1ccccc1OCCOCCOc1cccc2cccnc12	-5.0%	-29%	-17%	9%	3%	0%	-50%	-8%
O=C(Cn1c(=O)oc2ccccc21)N1CCN(c2ccc(N3CCOCC3)nn2)CC1	-1.1%	6%	-7%	-2%	2%	-5%	11%	.
CCOc1ccc(S(=O)(=O)Nc2ccc(C(=O)NCC(c3ccco3)N3CCCCC3)cc2)cc1 (stereo not given)	.	?	-11%	0%	.	-10%	.	-9%
CC1(C(=O)NC2CCCC2)CCC(=O)N1Cc1ccc2c(c1)OCO2 (stereo not given)	-4.7%	4%	1%	5%	-2%	4%	-5%	7%
CC1=C(C(=O)OCc2ccc3c(c2)OCO3)C(c2ccc(Cl)cc2)NC(=O)N1 (stereo not given)	-9.6%	2.1µM*	-7%	3%	-5%	.	-7%	?
CCOC(=O)c1ccc(NC(=O)c2ccnn2C)cc1	.	?	1%	.	.	60%[activator]	.	6%
COc1ccccc1N1C(N)=NC(N)=NC12CCCCC2	.	?	21%	1%	.	0%	2%	6%
